Screening data as filed in PubChem.
HepG2: HepG2 cell cytotoxicity, dose response, cytotoxicity control, ATP luminescence, cherry-pick, activator set 2 (AID 1053143) | HepG2 viability, CellTiter-Glo ATP luminescence, 72 h | activity change, negative = cytotoxicity, % at the top dose, mostly 26 µM; hits show AC50 in µM | hit rate 3.7% among 3,400;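 active means fitted AC50 at most twice the highest valid dose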;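 further: 0 = neutral control and -100 = positive control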
The depositor's hits bear a star; [ ] = another dose, or the depositor's remark. Only part of the results is shown (hit frequency here may not be typical).

SMILES	HepG2
O=C(OCC(=O)N1CCOCC1)c1ccc2ccccc2c1O	0%
CCCCC12CN3CCN(CC(C3)/C1=N\NC(=O)c1ccccc1N)C2	1%
CCC(C)NC(=O)c1ccc2c(Cl)c3c(nc2c1)CCC3 (stereo not drawn)	-5%
O=C(Nc1ccc2ccccc2n1)c1ccccc1Br	-17%
CC(=O)Nc1nc(C)c(-c2csc(Nc3ccccn3)n2)s1	-23%
COc1ccc2cc(C3=CCCCC3)ncc2c1	0%
Clc1ccc(/C=N/N2CCCCC2)cc1	0%
COc1ccc(OCc2cc(C(=O)N3CCOCC3)no2)c(Cl)c1	-6%
CCOc1cc(C2C(C(=O)N3CCCCC3)=C(C)NC3=C2C(=O)CC(C)(C)C3)ccc1O (stereo not drawn)	90%
CCc1ccccc1-n1c(SCC(=O)N2CCCC2)nnc1-c1ccccn1	-8%
CSc1nccc(N/N=C/c2ccccc2)n1	-16%
COc1ccccc1/C=C/C(=O)Oc1cccc2cccnc12	-14%
Cn1cc([N+](=O)[O-])c(C(=O)Nc2ccc(C3CCCCC3)cc2)n1	19µM*
O=C(CNC(=O)c1ccc(Cl)cc1)NNC(=O)c1ccc(Br)cc1	-7%
Cc1ccc2oc(Nc3nc(C)cc(C)n3)nc2c1	0%
Oc1cccc(/C=C/c2ccc3cccc(O)c3n2)c1	26µM*
Cn1nc(-c2ccccc2)nc1-c1ccccc1	-11%
COC(=O)c1cnc(SCC(=O)c2ccccc2)n1C	-14%
O=C(CNC(=O)c1ccccc1F)c1ccc(Br)cc1	-6%
O=c1c2ccccc2oc2cc(C#Cc3ccccn3)ccc12	-2%

Reprinted from the part before: three compounds, then new ones.
SMILES	HepG2
COC(=O)c1cnc(SCC(=O)c2ccccc2)n1C	-14%
O=C(CNC(=O)c1ccccc1F)c1ccc(Br)cc1	-6%
O=c1c2ccccc2oc2cc(C#Cc3ccccn3)ccc12	-2%
COC(=O)C[C@H]1C=C[C@@H](NC(=O)C2CC2)[C@@H](CO)O1	0%
O=C(/C=C/C=C/c1ccccc1)c1ccco1	7%
O=C(O)C1C2CCCCC2=C2CCCCC2C1C(=O)O (stereo not drawn)	-2%
COc1ccc2c(c1OC)C(=O)N(c1ccc(C)cc1)C2	-8%
COc1cccc(NC(=O)n2ncc3c(C)cccc32)c1	-23%
Cc1ccc(NCc2nc3ccccc3n2C)c(C)c1	-18%
c1ccc(OCCOc2ncnc3sccc23)cc1	-19%
Clc1cc(Cl)c(OCc2nc(-c3ccccn3)no2)cc1Cl	-16%[12 µM]
O=C(c1ccc2oc(CCCc3ccccc3)nc2c1)N1CCCC1	-15%
O=C(Nc1nc2ccccc2[nH]1)c1ccccc1O	6%
Cc1cc(NC(=O)c2ccco2)sc1C	26µM*
Oc1ccc(-c2nnc(SCC3CCCCC3)o2)cc1	-10%
Cc1csc(NC(=O)Nc2cccc(Cl)c2)n1	-9%
COc1ccc(-c2cn3cccc(C)c3n2)cc1Br	-5%
CC(C)NC(=O)Nc1n[nH]c(Nc2ccc(Cl)cc2)n1	-4%
CCCc1nc2oc3c(NCC(C)O)ncnc3c2c2c1CCCC2 (stereo not drawn)	-14%
Nc1cc2c(cc1Br)-c1ccccc1C2=NO	-6%
COc1ccc(C2=NN3C(C2)c2ccccc2OC3c2cccs2)cc1 (stereo not drawn)	-25%
N#Cc1cccc(NC(=O)COC(=O)Cn2nc(-c3ccccc3)oc2=O)c1	-7%
Cc1cc(NC(=O)Nc2ccc(C)c(C)c2)no1	11%[12 µM]
O=C(c1ccc(N2CCOCC2)c([N+](=O)[O-])c1)N1CCN(S(=O)(=O)c2cccs2)CC1	-7%
O=C(Nc1nc2c(F)cc(F)cc2s1)c1ccco1	-10%
O=C1NC(c2ccccc2Br)=N/C1=C\c1ccco1	-10%
CCOC(=O)c1sc(=NC(=O)c2ccc(C)cc2)n(C)c1C	14%
C=CCNC(=O)/C=C/c1ccc(C(C)C)cc1	-8%
CC(C)(C)C(=O)O/N=C(\N)c1ccc(-c2csnn2)cc1	-13%
O=C(c1cc2ccccc2o1)c1cccs1	4%
COC(=O)C1=C(C)Nc2nc3ccccc3n2C1c1cc(OC)c(OC)c(OC)c1 (stereo not drawn)	-21%
Cc1ccc(C(CC(=O)c2ccco2)SCCO)cc1 (stereo not drawn)	5%
COC(=O)[C@H](CC(C)C)NC(=O)N1CCCCC1C (stereo partly drawn)	-12%
O=C(COc1ccccc1Cl)Nc1ccc(Cl)cn1	-5%
Nc1c(C(=O)Nc2ccc3c(c2)OCCO3)nnn1Cc1ccc(Br)cc1	6%
CC(C(=O)N1CCOCC1)N1C(=O)c2cccc3cccc(c23)C1=O (stereo not drawn)	-11%
NC(=O)CSc1nnc(NC(=O)c2ccc3ccccc3c2)s1	-9%
Cc1c(C(=O)N2CCc3ccccc32)oc2ccccc12	-12%
Cc1ccc(-c2nc3ccsc3c(=O)o2)cc1	-6%
Cc1cc(-c2ccc3c(c2)COc2c4ccccc4nn2-3)on1	3%[12 µM]
Cc1ccc(-c2cnc3ccccc3n2)cc1C	26µM*
CCOC(=O)c1cnn(-c2ccccc2)c1NC(=O)CN1CCCCC1	-6%
Cc1ccc2c(c1)c1c(n2C)-c2[nH]ncc2CC1	-4%[12 µM]
N=c1oc2ccc(Cl)cc2cc1C(=O)Nc1ccc(F)cc1	-9%
O=C(Nc1ccc2c(c1)nc1n2CCOC1)c1ccccc1	-17%
CC(Sc1nc2ccccc2o1)C(=O)O (stereo not drawn)	-11%
O=C(O)c1ccccc1SCc1cn2cc(Cl)ccc2n1	17%
Nc1[nH]n(-c2ccccc2)c(=O)c1N=Nc1ccc2c(c1)OCO2	-20%
CC1(C)CC(=O)C(N=Nc2ccc(F)cc2)=C(O)C1	5%
COc1ccc(/C=C/C(=O)c2cc3c(cc2N)OCO3)cc1	-11%
c1ccc2c(c1)CCc1c(-c3ccncc3)n[nH]c1-2	-17%
O=C(O)c1cc(N/N=C/c2ccc(N3CCOCC3)cc2)ccc1Cl	-19%[12 µM]
Cc1c(C(=O)c2ccccc2)oc2ccc3ccccc3c12	-5%
CCCC12CN3CCN(CC(C3)/C1=N\NC(=O)c1ccccc1N)C2	-12%
COc1ccc(Nc2ncnc3c2c(C)c(C)n3CCO)cc1	-15%
CC(=O)Nc1ccc(-c2cc(N)n(-c3ccccc3)n2)cc1	-17%
Nc1ccc(C(=O)OCCc2ccccc2)cc1	-19%
Cc1ccc(CCC(=O)Nc2ccccc2F)s1	22%
COc1ccc2oc(C(=O)Nc3ccccn3)c(C)c2c1	-23%
CCCC#Cc1ccc2c(c1)COc1c3ccccc3nn1-2	-11%
CC(=O)c1ccc(OCc2cc(C(=O)NC3CCCCC3)no2)cc1	-11%
CCOC(=O)Cn1cnc2c(sc3nc(C)cc(C)c32)c1=O	-9%[6 µM]
Oc1ccc(Br)cc1-c1cc(-c2ccccc2F)[nH]n1	-27%

(list continues)
SMILES	HepG2
CC(C)CCn1c(CN2CCN(c3cccc(Cl)c3)CC2)nc2c1c(=O)n(C)c(=O)n2C	-21%
Oc1ccc(-c2csc(Nc3ncccn3)n2)c(O)c1	1%
O=C(CSc1cccc[n+]1[O-])Nc1cc2c(cc1Cl)C(=O)c1ccccc1C2=O	-23%
N/C(=N\OC(=O)COc1ccccc1)c1ccccn1	-8%
Cc1cccc(C(=O)OCC(=O)c2c(C)[nH]c3ccccc23)c1O	1%
CC(=O)c1c(C)[nH]c(C(=O)OCc2ccccc2)c1C	-11%
Cc1cccc(-n2ncc3c(NCCCO)ncnc32)c1	4%
Brc1ccc(-c2noc(C3CCCCC3)n2)cc1	36%
Cc1ccc(C)n1-c1ccc(C(=O)Nc2ccccc2)cc1	-15%
N=c1oc2cc(O)ccc2cc1C(=O)Nc1ccc(Cl)cc1	-1%[12 µM]
Fc1ccc(/C=C/c2nnc(-c3cccs3)o2)cc1	-12%
CSc1nc(Cl)cc(Nc2ccc(O)cc2)n1	0%
CCCCNC(=O)C1(C)CCCCN1C(=O)c1c(C)noc1C (stereo not drawn)	-14%
O=c1oc2ccccc2cc1-c1nnc(NCc2ccco2)s1	-17%
Cn1c(CCNC(=O)c2ccco2)nc2cc(NC(=O)c3ccco3)ccc21	17%
O=C(Nc1cccnc1)c1cc(-c2ccc(Cl)cc2Cl)on1	-6%
Clc1ccc(OCc2nc(-c3ccncc3)no2)c(Br)c1	-12%
O=C(/C=C/c1cccs1)NCc1cccs1	-5%
CC(/C=N/NC(=O)c1cccc(F)c1)=C\c1ccccc1	-23%
Cc1cc(-c2nnc(-c3cccc(Cl)c3)o2)no1	11%
NC(=O)C1CCN(C(=O)c2cc3c(s2)CCCCC3)CC1	-16%
Nc1c(C(=O)Nc2ccc3c(c2)OCCO3)nnn1Cc1ccc(Cl)cc1	-4%
Nc1c(-c2cccc(Cl)c2)cnc2c(-c3ccccc3)cnn12	-1%
C(/C=C/c1ccccn1)=C\c1ccccc1	-23%
c1ccc(OCc2nc(-c3ccccc3)no2)cc1	-5%
Cc1ccccc1Nc1sc(C(=O)Nc2cccc(Cl)c2)c(N)c1C(N)=O	-4%
O=C(O)c1cc(/C=C/c2ccc(N3CCOCC3)c([N+](=O)[O-])c2)nc2ccccc12	-7%
O=C1CCN(Cc2ccccc2)C=C1c1ccc2ccccc2c1	-10%
Cc1ccc(Cn2nc(-c3ccccc3)nc2-c2ccccc2)cc1	-3%
Cc1ccc(-c2nnc(SCC(C)C)n2C)cc1	-9%
O=C(c1ccc2c3n(nc2c1)-c1ccc(Cl)cc1CO3)N1CCOCC1	-29%
Cc1cc(Br)cc(Cl)c1OCC(=O)N1CCN(C(=O)c2ccco2)CC1	-10%
Cc1c(C(=O)Nc2ccccc2)sc2nc(-c3ccccc3)cn12	-11%
Nc1c(-c2cccs2)cnc2c(-c3ccc(F)cc3)cnn12	-14%
Cc1ccc(NC(=O)/C=C/c2ccc3c(c2)OCO3)nc1	-4%
Cc1ccnc(NC(=O)CCNS(=O)(=O)c2ccc(C)c(C)c2)c1	14%
CC(C)(C)c1ccc(/C=C/C(=O)Nc2cccnc2)cc1	-5%
COc1cccc(NC(=O)C(=O)NCC2CCCN2S(=O)(=O)c2ccccc2)c1 (stereo not drawn)	-12%
CCN(CC)S(=O)(=O)c1ccc(O)c(NC(=O)COc2ccc(S(=O)(=O)N3CCOCC3)cc2)c1	-2%
COc1ccc(C(=Cc2ccccc2[N+](=O)[O-])C(=O)O)cc1	13%
CCCNC(=O)c1oc2ccc3c(c2c1C)C=CC(C)(C)O3	-8%
CC1(C)CC(=O)C2=C(C1)Nc1ccccc1NC2c1ccc2c(c1)OCO2 (stereo not drawn)	-6%
Cc1cccc(C)c1N1CCN(C(=O)Nc2ccc3c(c2)OCCO3)CC1	-14%
COc1ccc2c(c1)Cc1sc(NC(=O)c3ccccc3)nc1-2	-11%
COc1ccc2nc(Nc3ccc4c(c3)OCO4)sc2c1	-10%
Cc1ccc2c(c1)Sc1c(ccc3ccccc13)N2	-13%
O=C(CSc1n[nH]c(=O)n1C1CC1)c1ccc2c(c1)OCCO2	-11%
COc1cc2ccccc2cc1C(=O)Nc1ccc(C)cn1	6%
Nc1c(C(=O)Nc2ccc3c(c2)OCCO3)nnn1Cc1cccc(Cl)c1	-26%
CCOC(=O)c1ccc(N2Cc3ccccc3C2=NC(=O)c2ccncc2)cc1	0%
O=C1Nc2ccccc2S/C1=C/c1cccs1	-28%
O=c1oc(CCO)cc2ccc(C#Cc3ccsc3)cc12	7%
Cc1cnc(NC(=O)c2ccccn2)s1	-9%
C/C(=N/NC(=O)c1ccco1)c1ccc(NC(=O)c2ccc(F)cc2)cc1	-9%
c1cncc(CNc2cccc(-c3nc4ccccc4[nH]3)c2)c1	7%[12 µM]
O=C(Nc1ccc(Br)cc1)c1cc2ccccn2n1	-20%[12 µM]
CC1CCN(C(=O)c2cc(-c3ccccc3O)on2)CC1	-14%
COc1cc(SC)ccc1C(=O)Nc1ncc(Cl)cc1Cl	11%
Cc1nc(-c2ccc([N+](=O)[O-])cc2)nc2[nH]ccc(=O)c12	-18%
O=C(Nc1nnc(-c2ccco2)s1)C1CC1	-3%

(cont.)
SMILES	HepG2
O=C(Nc1ccc2c(c1)Cc1ccccc1-2)c1ccccc1F	8%
CCCNC(=O)c1oc2ccc3c(c2c1C)C(=O)CC(C)(C)O3	-3%
O=C(COC(=O)c1cccc(F)c1)Nc1ccc2c(c1)OCCO2	-14%
Cn1cncc1C#Cc1ccc2c(=O)c3ccccc3oc2c1	8%
Oc1[nH]c2ccccc2c1C=Nc1ccc2c(c1)OCO2	-1%[12 µM]
O=c1oc2ccccc2cc1-c1csc(Nc2ccc(O)cc2)n1	-2%
Cc1ccc(C)c(N2CCN(C(=O)CCc3nc(-c4ccccc4C(F)(F)F)no3)CC2)c1	5%
Cc1occc1C(=O)NNC(=O)c1ccccc1F	-9%
Cc1ccc(Nc2n[nH]c(C)c2[N+](=O)[O-])cc1	8%

Structural class, the compounds so far with a furan ring, fused or not.
SMILES	HepG2
O=C(/C=C/C=C/c1ccccc1)c1ccco1	7%
Cc1cc(NC(=O)c2ccco2)sc1C	26µM*
CCCc1nc2oc3c(NCC(C)O)ncnc3c2c2c1CCCC2 (stereo not drawn)	-14%
O=C(Nc1nc2c(F)cc(F)cc2s1)c1ccco1	-10%
O=C1NC(c2ccccc2Br)=N/C1=C\c1ccco1	-10%
O=C(c1cc2ccccc2o1)c1cccs1	4%
Cc1ccc(C(CC(=O)c2ccco2)SCCO)cc1 (stereo not drawn)	5%
Cc1c(C(=O)N2CCc3ccccc32)oc2ccccc12	-12%
Cc1c(C(=O)c2ccccc2)oc2ccc3ccccc3c12	-5%
COc1ccc2oc(C(=O)Nc3ccccn3)c(C)c2c1	-23%
O=c1oc2ccccc2cc1-c1nnc(NCc2ccco2)s1	-17%
Cn1c(CCNC(=O)c2ccco2)nc2cc(NC(=O)c3ccco3)ccc21	17%
Cc1cc(Br)cc(Cl)c1OCC(=O)N1CCN(C(=O)c2ccco2)CC1	-10%
CCCNC(=O)c1oc2ccc3c(c2c1C)C=CC(C)(C)O3	-8%
C/C(=N/NC(=O)c1ccco1)c1ccc(NC(=O)c2ccc(F)cc2)cc1	-9%
O=C(Nc1nnc(-c2ccco2)s1)C1CC1	-3%
CCCNC(=O)c1oc2ccc3c(c2c1C)C(=O)CC(C)(C)O3	-3%
Cc1occc1C(=O)NNC(=O)c1ccccc1F	-9%
